Assay outcomes deposited in PubChem by ICCB-Longwood Screening Facility, Harvard Medical School.
AID504770: E. coli YBA685 growth inhibition, screen for V. cholerae RctB inhibitors; E. coli YBA685 rctB-dependent plasmid, OD600 growth, 3 h; active compounds read low; z-score (test concentration not listed); 130,000 compounds, 0.27% hits; AID 504770;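 active means z-score under -2 on both plates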;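 further: wells of about 30 µL received 100 nL stock; score is relative to mean and SD of the test wells; the first replicate is given; strong numbers were not always called active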
CapD inh: blocks the Bacillus anthracis CapD enzyme; AID 492967; purified CapD enzyme, fluorescence intensity read-out; active compounds read low; some hits fall short of the stated cut; z-score (no concentration beside the values); 140,000 compounds, 0.23% hits;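 active means z-score under -4 in either of two replicates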;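 further: stock transfer was 100 nL into about 40 µL; score is relative to mean and spread of the plate; one replicate is shown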
Active calls of the source: *; / = no result given.

Order of values – AID504770, CapD inh
1) N#Cc1c(NC(=O)CC2CCCC2)sc2c1CCC2
  -2, -0.44
2) O=C1C2C3C=CC(C3)C2C(=O)N1c1cccc(O)c1 (stereo unspecified)
  -1, -0.27
3) c1ccc2c(NN=C3CCCCCC3)nncc2c1
  -0.35, /
4) Clc1ccc(-c2cnc3[n+](c2)[C@H](CBr)CS3)cc1
  -0.7, -0.06
5) CCN1C(=O)N/C(=C/c2cn(Cc3ccccc3)c3ccccc23)C1=O
  0.25, 8.3
6) CS(=O)(=O)Nc1ccc2c(c1)CCC2
  -1, -0.42
7) CN1CCN(CCCNC(=O)c2ccc3c(=O)n(Cc4ccc(Cl)cc4)c(=S)[nH]c3c2)CC1
  /, -0.14
8) COc1ccc(NC(=O)N2CCC(CN3CCCCC3)CC2)cc1OC
  1.6, 0.85
9) COc1ccc2nc(SCC(=O)Nc3ccc(NC(C)=O)cc3)n(S(=O)(=O)c3ccc(Cl)cc3)c2c1
  /, -0.74
10) COC(=O)C1(CO)NC(c2ccccc2F)C2C(=O)N(c3ccccc3)C(=O)C21 (stereo unspecified)
  -0.1, /
11) Cc1nc2c(C(=O)NCCCN3CCOCC3)cnn2c(C)c1Cc1ccccc1Br
  /, 18
12) CC(=O)NC1C(OCc2ccccc2)OC(CO)C(O)C1O (stereo unspecified)
  /, -0.3
13) CC(C)(C)c1ccc(C(=O)N2CCC(C(=O)c3ccccc3)CC2)cc1
  0.1, -0.12
14) Cc1c(C(=O)O)oc2ccccc12
  -0.1, -0.56
15) COC(=O)c1ccc(OC(=O)c2cc(C)sc2C)cc1
  -0.1, /
16) N#CCS(=O)(=O)c1ccc2ccccc2c1
  /, 0.54
17) CC1CC(C)CN(C(=O)COC(=O)c2cccc(S(=O)(=O)N(C)C)c2)C1 (stereo unspecified)
  0.6, /
18) Cc1ccc(S(=O)(=O)/C(C#N)=C/c2sccc2C)cc1
  -0.3, 0.34
19) CCCCC#Cc1ccc(C(=O)NNC(=O)Nc2ccc(Cl)cc2)o1
  /, -0.015
20) Cc1ccc(-n2c(Sc3cnccn3)nnc2-c2ccccc2)cc1C
  1.5, /
21) O=C1NNC(=S)C1C1CC1 (stereo unspecified)
  -0.15, /
22) c1coc(CNc2nc3nonc3nc2NCc2ccco2)c1
  /, -0.75
23) CCCN=c1ssc(=O)n1CCC
  -1.5, 0.35
24) O=C(O)/C=C/CC(=O)O
  0.8, /
25) O=C(Oc1ccc(C2SCCS2)cc1)c1cccs1
  -0.65, 0.35
26) N#Cc1cccc(NC(=O)CSc2ncccn2)c1
  1.7, /
27) COC(=O)c1ccc(Nc2cc(=O)[nH]c(=O)[nH]2)cc1
  -0.5, /
28) CC(=O)n1c2cc(C#N)c(C#N)cc2oc2nc3ccccc3nc2c2ccccc21
  -0.95, 1.2
29) COc1cc(-c2nc3ccccc3c(=O)n2OC(=O)c2ccccc2Cl)cc(OC)c1OC
  /, -0.29
30) COC(=O)/C=c1\sc2n(c1=O)CCN=2
  -1.2, -0.86
31) CSC1=NCCN1CC(=O)c1ccc(F)cc1
  2.5, 1.4
32) COC(=O)c1ccccc1NC(=O)c1ccc(N2CC3CC(C2)c2cccc(=O)n2C3)c(NC(=O)c2c(F)cccc2F)c1 (stereo unspecified)
  /, 0.08
33) CC1CCCCN1Cc1c(O)ccc2c(=O)c(-c3ccccc3)coc12 (stereo unspecified)
  0.65, 16
34) N#Cc1cnc(SCC(=O)Nc2ccccc2C(F)(F)F)nc1N
  1.1, 24
35) c1csc(CN=C2SCCN2C2CCCCC2)c1
  -0.25, /
36) CC(Sc1nc2cc(Cl)ccc2c(=O)n1Cc1ccco1)C(=O)Nc1ccc(Cl)cn1 (stereo unspecified)
  0.15, /
37) O=C(Nc1ccc(Cl)cc1)N1c2ccccc2CCc2ccccc21
  /, -0.36
38) CCOC(=O)CNC(=O)c1sc2ncnc(N3CCN(c4ccccc4OC)CC3)c2c1C
  /, -0.15
39) CCOC(=O)c1cccc(OCC(O)CNCC(c2ccc(OC)cc2)N2CCCC2)c1 (stereo unspecified)
  0.25, /
40) O=C(O)CNC(=O)c1ccc(Oc2ccccc2)cc1
  0.3, /
41) O=C(CCn1c(=S)oc2ccccc21)Nc1ccccc1F
  -1, -0.025
42) Cc1cc(OCC(=O)Nc2ccc(OC(F)(F)F)cc2)c2ccccc2n1
  0.05, -1.2
43) CC1=C(C(=O)Nc2ccc(Cl)cc2)C(c2ccco2)C(C#N)=C(SCC(=O)Nc2ccc(C)cc2)N1 (stereo unspecified)
  /, -0.25
44) Cc1ncsc1CCOC(=O)c1ccc2c(c1)S(=O)(=O)c1ccccc1C2=O
  2.4, /
45) Cc1ccccc1-n1nc2c(c1NC(=O)c1ccc(S(=O)(=O)N3CCCC3)cc1)CS(=O)(=O)C2
  /, -0.92
46) CN1CCN(Cc2nc(N)nc(Nc3ccccc3)n2)CC1
  -0.2, /
47) CN(C)C(=S)Oc1ccc2c(C(F)(F)F)cc(=O)oc2c1
  2, -1.2
48) CCCCn1c(SCn2nnc3ccccc3c2=O)nc2cc(S(=O)(=O)N3CCCCC3)ccc21
  -0.1, /
49) Cc1ccc(CNC(=O)Cn2c(=O)n(-c3ccc(C)c(C)c3)c(=O)c3c(C)c(C)sc32)cc1
  -0.55, 0.32
50) CN(CC(=O)Nc1ccc(F)c(F)c1F)CN1C(=O)C2CC=CCC2C1=O (stereo unspecified)
  -0.65, /

Additional records:
Order of values – AID504770, CapD inh
51) CSC(=CC(=O)c1ccco1)SC
  -1.2, -2.2
52) Cc1ccc(-n2nc3c(c2NC(=O)COc2ccc(Cl)cc2Cl)CS(=O)(=O)C3)c(C)c1
  /, -0.5
53) Cc1onc(-c2ccccc2Cl)c1C(=O)Nc1nnc(-c2cccc([N+](=O)[O-])c2)s1
  /, -0.55
54) CC(C)(C)c1ccc(C2CC(=O)C(C=NCCN3CCNCC3)=C(O)C2)cc1 (stereo unspecified)
  -0.5, 0.075
55) Cc1cc(C(=O)NCc2cccn2C)nn1C
  -0.75, 0.12
56) CCOC(=O)C1CCCCN1S(=O)(=O)c1ccc2ccccc2c1 (stereo unspecified)
  -0.25, /
57) CC(C)=NOCC(=O)Nn1c(COc2c(C)cccc2C)nc2ccccc2c1=O
  0.65, /
58) CN(C)c1cc(Nc2ccccc2)c2c3c(onc13)-c1ccccc1C2=O
  /, 0.19
59) CC(OC(=O)CCc1nc(=O)c2ccccc2n1C)C(N)=O (stereo unspecified)
  -0.55, /
60) COc1ccc(CNC(=O)CN(C)c2ccccc2)cc1
  0.45, /
61) O=S(=O)(c1cc(Br)c(Br)s1)N1CCN(Cc2ccc3c(c2)OCO3)CC1
  -1, 0.25
62) O=C(NC(=O)C(F)(F)F)Oc1ccc(Cl)cc1
  -1.2, -0.51
63) Nn1c(-c2ccncc2)nncc1=O
  -0.5, /
64) Cc1ccc(C(=O)C2=C(O)C(=O)N(CCc3ccccc3)C2c2ccncc2)o1 (stereo unspecified)
  0.15, /
65) CSC(=NCc1ccccc1)Nc1cc(-c2ccccc2)[nH]n1
  -0.65, 0.5
66) OC1CCC(n2c(-c3ccccc3)nc(=S)c3c2CCCC3)CC1 (stereo unspecified)
  1.4, -0.01
67) CCn1c(C(=O)O)c(CC(=O)Nc2ccccc2F)c2ccccc21
  1.8, -0.07
68) CCNc1nc(Cl)nc(N(C)C#N)n1
  0.1, /
69) O=C(Nc1c(-c2ccccc2)nc2ccccn12)c1ccccc1Br
  /, 0.48
70) CCSc1nnc2c3ccccc3n(CC)c2n1
  -0.8, 0.015
71) N#CC1COc2ccccc2O1 (stereo unspecified)
  -0.4, 0.63
72) Cc1cc(C)nc(Sc2ccc(NC(=O)/C=C\C(=O)O)cc2)n1
  /, -0.11
73) N#Cc1ncc(C(F)(F)F)cc1SCc1ccc(Cl)cc1
  0.7, 1.2
74) CCC(=O)N1c2ncnn2C(c2ccccc2OC)CC1c1ccccc1 (stereo unspecified)
  0.1, /
75) CC(C)(C)C1CC=C2C(C#N)=C(N)C(C#N)(C#N)C(c3ccc(Cl)cc3)C2C1 (stereo unspecified)
  /, 2.7
76) O=C(CSc1ccccn1)NCCOc1ccccc1
  0.6, /
77) Cc1nc(NC(=O)Cn2c(=O)oc3cc(Cl)ccc32)sc1C
  /, 0.58
78) CCn1cnc2c1c(=O)n(Cc1csc(-c3ccccc3)n1)c(=O)n2Cc1ccccc1
  -0.1, /
79) CCCC1=C(C(=O)OCC)C(c2cccc(F)c2)C(C#N)=C(N)O1 (stereo unspecified)
  /, 1.4
80) CC(C)(C)c1csc(-c2ccc(C=N/C(C#N)=C(\N)C#N)cc2)n1
  -0.2, -0.36
81) O=C1c2cccc([N+](=O)[O-])c2C(=O)N1C1C(=O)N(c2ccc(Cl)cc2[N+](=O)[O-])C1c1cccs1 (stereo unspecified)
  /, -0.51
82) CCOC(=O)N1CCN(C(=O)C(CC)n2nc(C)c3sc4ccccc4c3c2=O)CC1 (stereo unspecified)
  0, 2.4
83) CC(Oc1cc(Cl)c(Cl)cc1Cl)C(=O)N(Cc1ccccc1)C(C)(C)C(=O)Nc1ccccc1 (stereo unspecified)
  /, -0.38
84) O=c1[nH]c(C23CC4CC(CC(C4)C2)C3)cs1
  -1.2, 0.06
85) Cc1cc(NC(=O)CCN2C(=O)/C(=C/c3ccc(F)cc3)SC2=S)no1
  /, 0.02
86) O=C(c1ccc2sc3ccccc3n12)C(F)(F)F
  /, 0.21
87) Cc1cc(=O)oc2cc(Oc3nnc(-c4ccccc4)c4ccccc34)ccc12
  /, 0.035
88) C/C(=N\Nc1ccccc1Cl)C(c1ccccc1)N1CCOCC1 (stereo unspecified)
  0.1, /
89) c1ccc(-c2ccc(-c3csnn3)cc2)cc1
  -0.65, 0
90) O=C(c1nn2c(C(F)(F)F)cc(-c3cccs3)nc2c1Br)N1CCOCC1
  /, -0.41
91) Cc1ccc2c(c1)nnn2C1CCN(CC(=O)N2c3ccccc3CC2C)CC1 (stereo unspecified)
  -0.75, /
92) COc1cc(/C=C2\N=C(c3ccc([N+](=O)[O-])cc3Cl)OC2=O)ccc1OC(C)=O
  /, -0.32
93) Cn1c2ccccc2c2nnc(SCCCC(=O)c3ccc4c(c3)OCCO4)nc21
  0.35, -0.11
94) O=C(Cc1ccccc1)c1c[nH]c(C(=O)NCCCN2CCOCC2)c1
  /, -0.14
95) O=C1/C(=C/c2ccc(F)cc2)CC/C1=C\c1ccc(F)cc1
  /, 0.77
96) Cc1ccc2nc(COC(=O)/C(C#N)=C/c3cc(C)n(CC(C)C)c3C)cc(=O)n2c1
  -0.25, /
97) CCOC(=O)c1ccc2ncc(C(=O)OCC)c(NCCN(C)C)c2c1
  1.9, 3
98) CCCN(CCC)CN1C(=S)SC2=NC(=O)CCCN21
  -0.45, 0.33
99) COC(=O)c1c(N)sc2c1CCN(C)C2
  -0.95, 23
100) NC(=O)COC(=O)c1ccccc1OCc1ccccc1
  -0.75, 0.22

The listing continues.
Order of values – AID504770, CapD inh
101) O=C(O)c1nccnc1C(=O)Nc1cccc2c1CCCC2
  -0.75, -0.54
102) NC(=O)c1ccc(NC(=O)COC(=O)C2CC(=O)N(Cc3ccccc3)C2)cc1 (stereo unspecified)
  -0.1, /
103) O=C(CSC1=Nc2ccccc2C2CC=NN12)NCc1ccco1 (stereo unspecified)
  -0.3, /
104) ON=C1CCCCCCCCCCC1
  -0.5, /
105) Cc1nc2cc(-c3cccc(F)c3)nn2c(C)c1CCC(=O)Nc1ccc2c(c1)OCCO2
  0.2, 0.23
106) CCOc1ccc(NC(=O)c2ccc3c(=O)n(-c4cc(OC)ccc4OC)c(=S)[nH]c3c2)cc1
  /, -0.23
107) CCOc1ccc(NC(=O)CN(C)C(=O)C2CCCC2)cc1OCC
  0.35, /
108) O=C1CCC(c2ccccc2)N1C(=O)c1ccc(Cl)cc1 (stereo unspecified)
  -0.05, 0.23
109) CN1CCN(/N=C/c2nc(-c3ccc(Cl)cc3)n3ccccc23)CC1
  0.1, /
110) Cc1nc2ccccc2nc1OCC(=O)NCC(F)(F)F
  -1.5, /
111) Cc1noc(C)c1CSc1ncccc1C(=O)Nc1ccccc1C(=O)NC1CCCC1
  -0.7, /
112) c1ccc(-c2nc3nonc3c3nc4ccccc4n23)cc1
  -0.45, 2.1
113) CCSc1nnc2c(n1)OC(c1c(OC)ccc3ccccc13)Nc1ccccc1-2 (stereo unspecified)
  /, -0.15
114) Cc1cc(/C=C2/SC(=Nc3ccccc3)NC2=O)c(C)n1-c1cccc([N+](=O)[O-])c1
  /, -0.1
115) CC(C)c1ccccc1NC(=O)CC1(CC(=O)O)CCCC1
  0, -0.41
116) CCOCN(C(=O)Cn1c(C(C)O)nc2ccccc21)c1c(C)cccc1CC (stereo unspecified)
  0, /
117) COC(=O)c1c(C)oc2cc(Br)c(OCC(=O)c3ccc(OC)cc3)cc12
  /, -1.2
118) Cc1cc2ccccc2c(=O)n1CC(=O)NCC(=O)N(C)C1CCCCC1
  /, 0.055
119) Clc1ccc(Oc2ccc3nnc(-c4ccccc4)n3n2)c(Cl)c1
  -0.25, 2.1
120) CC(CNC(=O)OCCCCc1ccc([N+](=O)[O-])cc1)c1ccc(Cl)cc1 (stereo unspecified)
  /, 0.26

This is a random part of the collection; any-hit rate near 0.39%.
